Screens as filed in PubChem.
FGF22 binding – binders of recombinant human FGF22 by thermal shift. calls only at 9.99 µM. Q9HCT0. 1.5% of 340,000 active. SYPRO orange fluorescence; percent of sucrose octasulfate shift, DMSO zero. AID 651658;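 active = melting point raised past a set limit in the mean and every replicate; three in four hits are not shown here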
Target sequence (Q9HCT0 whole entry, looked up): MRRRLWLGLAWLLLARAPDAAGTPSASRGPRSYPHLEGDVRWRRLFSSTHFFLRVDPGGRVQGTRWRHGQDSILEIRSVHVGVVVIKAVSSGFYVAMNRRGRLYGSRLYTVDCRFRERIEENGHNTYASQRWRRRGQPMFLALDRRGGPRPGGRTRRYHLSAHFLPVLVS
AF4-AF9 inh – MLL-AF4/AF9 protein interaction inhibition; AlphaScreen, biotin-AF4 peptide binding to FLAG-AF9; P42568; 0.47% of 350,000 active; inhibition, % at 10 µM;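 active = every replicate reaching a set inhibition limit, whatever the replicate mean, cut at about 25% in these data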;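 also: 0% = plate neutral control median and 100% = total signal loss; the record names both 10 and 1 µM as test concentration; the first replicate is given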
Target sequence (P42568 whole entry, looked up): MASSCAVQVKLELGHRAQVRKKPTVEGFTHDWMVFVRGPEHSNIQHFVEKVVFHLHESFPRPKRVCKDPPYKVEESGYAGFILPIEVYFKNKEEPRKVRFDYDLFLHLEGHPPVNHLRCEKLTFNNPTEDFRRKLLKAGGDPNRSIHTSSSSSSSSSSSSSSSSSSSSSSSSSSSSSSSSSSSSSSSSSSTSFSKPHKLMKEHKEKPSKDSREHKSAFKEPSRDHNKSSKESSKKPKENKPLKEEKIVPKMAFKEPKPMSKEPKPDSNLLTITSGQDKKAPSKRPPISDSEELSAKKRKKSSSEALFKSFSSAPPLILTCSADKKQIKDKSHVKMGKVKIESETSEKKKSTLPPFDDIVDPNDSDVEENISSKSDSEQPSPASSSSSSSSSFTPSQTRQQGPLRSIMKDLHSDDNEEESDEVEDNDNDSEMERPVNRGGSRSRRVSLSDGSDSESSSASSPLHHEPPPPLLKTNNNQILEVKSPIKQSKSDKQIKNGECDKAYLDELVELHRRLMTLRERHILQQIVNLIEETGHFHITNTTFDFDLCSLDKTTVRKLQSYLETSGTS
* marks the source's active call; other numbers are inactive results; i = inactive; + = active, no number; & = joins results of further samples. This is a subset; the hit share may differ from the screen's.

Each structure is followed by: AF4-AF9 inh | FGF22 binding
Cc1cccc(-c2ccc([C@H]3[C@@H](CO)N4CCCCN(C(=O)c5cccnc5)C[C@H]34)cc2)c1
 : -3.3 | i
O=C(C[C@H]1CC[C@@H]2[C@H](COC[C@H](O)CN2Cc2ccc3c(c2)OCO3)O1)Nc1ccccc1
 : 1.4 | i
C/C=C/c1ccc([C@@H]2[C@H](CO)N(CC3CCCC3)C23CN(S(=O)(=O)CC)C3)cc1
 : 9.9 | i
C[C@H]1CN([C@@H](C)CO)C(=O)c2cccc(NC(=O)c3ccncc3)c2O[C@@H]1CN(C)Cc1ccccc1
 : 3.9 | i
COc1cccc(-c2cnc3c(c2)C(=O)N([C@@H](C)CO)C[C@H](C)[C@@H](CN(C)Cc2cccnc2)O3)c1
 : 0.2 | i
C[C@H](CO)N1C[C@H](C)[C@H](CN(C)C(=O)c2ccccn2)Oc2ncc(-c3ccccc3)cc2C1=O
 : -8.7 | i
C[C@@H]1CN([C@@H](C)CO)C(=O)Cc2cc(NC(=O)Cc3ccccc3)ccc2O[C@@H]1CN(C)C(=O)Nc1ccc2c(c1)OCO2
 : -4.5 | i
COc1ccccc1S(=O)(=O)N1C[C@H](O)COC[C@@H]2O[C@H](CC(=O)O)CC[C@H]21
 : -8.8 | i
C[C@H](CO)N1C[C@H](C)[C@@H](CN(C)S(=O)(=O)c2cn(C)cn2)Oc2cc(C#Cc3ccccc3)ccc2S1(=O)=O
 : -6.5 | i
CCS(=O)(=O)Nc1ccc2c(c1)C(=O)N(C)[C@H]1CC[C@H](CC(=O)OC)O[C@H]1CO2
 : -7.1 | i
N#C[C@@H]1[C@@H](c2ccccc2)[C@@H](CO)N1C(=O)c1ccccc1F
 : 0.1 | i
C[C@H](CO)N1C[C@H](C)[C@H](CN(C)C(=O)Nc2ccc(C(F)(F)F)cc2)Oc2ccc(NC(=O)Cn3cnnn3)cc2CC1=O
 : -0.8 | i
CC(C)NC(=O)Nc1ccc2c(c1)CC(=O)N([C@@H](C)CO)C[C@@H](C)[C@@H](CN(C)C(=O)Nc1ccccc1)O2
 : -2.0 | i
CCCN1[C@@H]2Cn3c(ccc(-c4ccncc4)c3=O)[C@H]1[C@@H](C(=O)NCC1CC1)[C@@H]2CO
 : 1.5 | i
C[C@H](O)C#Cc1ccc2c(c1)O[C@H](CN(C)C(=O)Cc1ccccn1)[C@H](C)CN([C@@H](C)CO)S2(=O)=O
 : -6.2 | i
CO[C@@H]1CN(C)C(=O)c2cc(NC(=O)c3nc4ccccc4s3)ccc2OC[C@H](C)N(Cc2cncnc2)C[C@@H]1C
 : 3.6 | i
C[C@@H]1CN([C@H](C)CO)C(=O)c2cc(/C=C/c3ccccc3)cnc2O[C@@H]1CN(C)C(=O)C1CCOCC1
 : -7.0 | i
COc1ccc(S(=O)(=O)N(C)C[C@H]2Oc3ccc(NC(=O)CCCN(C)C)cc3C(=O)N([C@H](C)CO)C[C@@H]2C)cc1
 : 1.6 | i
COc1ccc(-c2cnc3c(c2)C(=O)N([C@H](C)CO)C[C@H](C)[C@H](CN(C)Cc2cccc(C(F)(F)F)c2)O3)cc1
 : 5.4 | i
C[C@@H]1CN([C@H](C)CO)C(=O)c2cc(NC(=O)NC3CCCCC3)ccc2O[C@H]1CN(C)Cc1ccccc1
 : -1.7 | i
Cc1ccc(-c2ccc([C@H]3[C@@H](CO)N4CCCCN(C(=O)c5ccncc5)C[C@@H]34)cc2)cc1
 : -5.0 | i
C[C@@H]1CN([C@@H](C)CO)C(=O)c2cc(C3=CCCC3)cnc2O[C@H]1CN(C)C(=O)Nc1ccc(F)cc1
 : -0.3 | i
C/C=C/c1cnc2c(c1)C(=O)N([C@H](C)CO)C[C@H](C)[C@H](CN(C)C(=O)Cc1ccccc1)O2
 : -2.2 | i
O=C(NCCc1ccncc1)[C@@H]1[C@@H](CO)[C@@H]2Cn3c(ccc(-c4ccccc4)c3=O)[C@@H]2N1C(=O)C1CC1
 : -1.9 | i
CCCNC(=O)N1[C@H](CO)[C@@H]2c3ccccc3N(C(=O)c3ccncc3)C[C@@H]21
 : -6.0 | i
OC[C@@H]1[C@@H](c2ccc(C#Cc3ccccc3)cc2)[C@@H]2CN(CC3CCOCC3)CCCCN12
 : 2.6 | i
CO[C@@H](CN(C)S(=O)(=O)c1ccc(F)cc1)[C@@H](C)CN(C(=O)Nc1ccccc1F)[C@@H](C)CO
 : -5.1 | i
CCCNC(=O)N(C)C[C@@H]1Oc2ncc(C#Cc3ccccc3F)cc2C(=O)N([C@H](C)CO)C[C@@H]1C
 : 1.8 | i
CC(=O)N1[C@@H]2c3ccc(-c4ccccc4)c(=O)n3C[C@@H]2[C@@H](CO)[C@@H]1C(=O)NCc1ccccc1Cl
 : -0.1 | i
CN(C)CC#Cc1ccc([C@H]2[C@H](CO)N3CCCCN(CC4CCOCC4)C[C@@H]23)cc1
 : 12 | i
CNC[C@H]1Oc2ccc(NC(=O)Nc3ccc4c(c3)OCO4)cc2CC(=O)N([C@H](C)CO)C[C@@H]1C
 : 6.5 | i
O=C(NCc1ccccc1)[C@H]1CCCN1C(=O)[C@H]1CCCN1C(=O)c1ccc(F)c(C(F)(F)F)c1
 : 1.0 | i
Cc1noc(C)c1NC(=O)N(C)C[C@@H]1Oc2c(NS(C)(=O)=O)cccc2C(=O)N([C@H](C)CO)C[C@H]1C
 : -13 | i
NCC[C@H]1CC[C@H](NS(=O)(=O)c2ccc(Cl)cc2)[C@H](CO)O1
 : 2.0 | i
C[C@H]1CN([C@@H](C)CO)C(=O)Cc2cc(NC(=O)Cc3ccccc3)ccc2O[C@H]1CN(C)C(=O)Nc1ccc2c(c1)OCO2
 : -0.9 | i
CC(C)CC#Cc1cnc2c(c1)C(=O)N([C@H](C)CO)C[C@@H](C)[C@H](CN(C)C(=O)c1cccnc1)O2
 : -1.8 | i
C[C@@H]1CN([C@H](C)CO)S(=O)(=O)c2ccc(Br)cc2O[C@H]1CN(C)C(=O)c1ccc2c(c1)OCO2
 : -1.1 | i
C[C@H]1CN([C@@H](C)CO)C(=O)c2cc(NC(=O)CCC(F)(F)F)ccc2O[C@@H]1CN(C)S(=O)(=O)c1ccccc1
 : -1.4 | i
CC(C)NC(=O)Nc1cccc2c1O[C@H](CN(C)S(=O)(=O)c1ccc(Cl)cc1)[C@@H](C)CN([C@@H](C)CO)C2=O
 : -1.4 | i
CO[C@@H]1CN(C)C(=O)c2ccc(NC(=O)NC(C)C)cc2OC[C@H](C)N(Cc2ccccc2)C[C@@H]1C
 : 0.8 | i
CO[C@@H](CN(C)C(=O)Nc1ccc(C(F)(F)F)cc1)[C@H](C)CN(Cc1ccccc1Cl)[C@@H](C)CO
 : -0.9 | i
CCNC(=O)C[C@@H]1CC[C@@H]2[C@H](COc3ccc(NC(C)=O)cc3C(=O)N2C)O1
 : -1.2 | i
O=C(C[C@@H]1CC[C@@H]2[C@H](COC[C@H](O)CN2Cc2cc(F)ccc2F)O1)NCc1ccc(Oc2ccccc2)cc1
 : 4.6 | i
C[C@@H]1CN([C@H](C)CO)C(=O)Cc2cc(NC(=O)CCCN(C)C)ccc2O[C@H]1CN(C)Cc1ccc(-c2ccccc2)cc1
 : 6.9 | i
O=C([C@@H]1[C@@H](CO)[C@@H]2Cn3c(cccc3=O)[C@@H]2N1Cc1ccncc1)N1CCCCC1
 : -21 | i

Four entries from above in a different format.
O=C(NCc1ccccc1)[C@H]1CCCN1C(=O)[C@H]1CCCN1C(=O)c1ccc(F)c(C(F)(F)F)c1
  AF4-AF9 inh: 1.0
  FGF22 binding: i

Cc1noc(C)c1NC(=O)N(C)C[C@@H]1Oc2c(NS(C)(=O)=O)cccc2C(=O)N([C@H](C)CO)C[C@H]1C
  AF4-AF9 inh: -13
  FGF22 binding: i

NCC[C@H]1CC[C@H](NS(=O)(=O)c2ccc(Cl)cc2)[C@H](CO)O1
  AF4-AF9 inh: 2.0
  FGF22 binding: i

C[C@H]1CN([C@@H](C)CO)C(=O)Cc2cc(NC(=O)Cc3ccccc3)ccc2O[C@H]1CN(C)C(=O)Nc1ccc2c(c1)OCO2
  AF4-AF9 inh: -0.9
  FGF22 binding: i

Next part.
Each structure is followed by: AF4-AF9 inh | FGF22 binding
O=C(CN1CCOCC1)N1CCCCN2[C@H](C1)[C@H](c1ccc(C#Cc3ccccc3)cc1)[C@@H]2CO
 : -3.0 | i
C[C@H]1CN([C@@H](C)CO)S(=O)(=O)c2ccc(C#CC3CC3)cc2O[C@@H]1CN(C)C(=O)c1ccncc1
 : 1.8 | i
CC(C)NC(=O)N(C)C[C@@H]1OCCCC[C@H](C)Oc2ccc(NC(=O)Cc3ccccc3)cc2C(=O)N([C@H](C)CO)C[C@@H]1C
 : 1.2 | i
CCS(=O)(=O)NCC[C@H]1CC[C@H](NC(=O)Nc2cc(Cl)cc(Cl)c2)[C@@H](CO)O1
 : -5.1 | i
CC(=O)N(C)C[C@@H]1Oc2ncc(-c3ccc(C(=O)N(C)C)cc3)cc2C(=O)N([C@@H](C)CO)C[C@H]1C
 : -3.2 | i
C[C@H](CO)N1C[C@H](C)[C@H](CN(C)C(=O)Nc2ccc3c(c2)OCO3)Oc2ccc(NC(=O)Nc3ccc4c(c3)OCO4)cc2C1=O
 : 2.2 | i
C[C@H]1CN([C@@H](C)CO)C(=O)CCCn2cc(nn2)CO[C@@H]1CN(C)S(=O)(=O)c1ccc(F)cc1
 : -10&-1.1&-1.6 | i
CC(C)NC(=O)N1CCCCN2[C@H](C1)[C@H](c1ccc(Br)cc1)[C@@H]2CO
 : -3.7 | i
C[C@H](CO)N1C[C@H](C)[C@H](CN(C)Cc2ccc(C(F)(F)F)cc2)Oc2c(NS(=O)(=O)c3cccs3)cccc2C1=O
 : 0.6 | i
C[C@H]1CN([C@@H](C)CO)C(=O)c2cc(NC(=O)Nc3cccc4ccccc34)ccc2O[C@@H]1CN(C)Cc1ccncc1
 : 2.8 | i
C[C@H](CO)N1C[C@H](C)[C@@H](CN(C)CC2CCCC2)Oc2ncc(C#Cc3ccncc3)cc2C1=O
 : -14 | i
C[C@H](CO)N1C[C@H](C)[C@@H](CN(C)C(=O)C2CCCCC2)Oc2cc(-c3ccc(C(=O)N(C)C)cc3)ccc2S1(=O)=O
 : -1.6 | i
COc1ccc(S(=O)(=O)Nc2ccc3c(c2)C(=O)N([C@@H](C)CO)C[C@H](C)[C@@H](CN(C)S(=O)(=O)c2ccc(Cl)cc2)OCCCC[C@H](C)O3)cc1
 : -3.7 | i
C[C@@H]1CN([C@@H](C)CO)S(=O)(=O)c2ccc(-c3cccc(C#N)c3)cc2O[C@H]1CN(C)C(=O)c1ccccc1
 : 0.6 | i
CCCC#Cc1ccc([C@@H]2[C@@H](CO)N3CCCCN(CC4CC4)C[C@@H]23)cc1
 : 9.8 | i
Cc1cc(C(=O)Nc2cccc3c2O[C@@H](CN(C)C(=O)NC(C)C)[C@@H](C)CN([C@H](C)CO)C3=O)n(C)n1
 : -0.3 | i
O=C(O)C[C@H]1C[C@@H]2c3cc(NC(=O)Nc4ccc(F)cc4)ccc3O[C@@H]2[C@@H](CO)O1
 : -3.6 | i
Cc1ccccc1NC(=O)C[C@H]1CC[C@H]2[C@@H](COc3ccc(NC(=O)C4CCC4)cc3C(=O)N2C)O1
 : -1.4 | i
O=C(C[C@@H]1C[C@@H]2c3cc(NS(=O)(=O)c4ccc(F)cc4)ccc3O[C@@H]2[C@H](CO)O1)NCc1cccc(F)c1
 : 0.1 | i
O=C(NCC[C@H]1CC[C@@H](NC(=O)c2cnccn2)[C@H](CO)O1)Nc1ccc(F)cc1
 : 5.5 | i
C[C@@H]1CN([C@H](C)CO)C(=O)c2cc(C#CCN(C)C)cnc2O[C@H]1CN(C)Cc1ccncc1
 : -0.9 | i
Cc1ccc(S(=O)(=O)N[C@@H]2CC[C@@H](CC(=O)NCCc3ccncc3)O[C@@H]2CO)cc1
 : 0.5 | i
C[C@@H]1CCCCO[C@H](CN(C)C(=O)Nc2ccc(F)cc2)[C@H](C)CN([C@H](C)CO)C(=O)c2cc(NS(=O)(=O)c3ccc(Cl)cc3)ccc2O1
 : -0.8 | i
CCCNC(=O)Nc1ccc2c(c1)OC[C@@H](C)N(C(=O)C1CCCCC1)C[C@@H](C)[C@H](OC)CN(C)C2=O
 : 1.1 | i
COc1ccc2c3c([nH]c2c1)[C@@H](CO)N(C(=O)CC1CC1)CC31CCN(C(=O)c2ccccc2)CC1
 : -3.4 | i
C[C@@H]1CN([C@@H](C)CO)C(=O)c2cc(-c3ccc(F)cc3)cnc2O[C@@H]1CN(C)Cc1cncnc1
 : -8.5 | i
C[C@H]1CN([C@@H](C)CO)C(=O)c2cccc(NC(=O)CCCCCC(=O)Nc3ccccc3N)c2O[C@@H]1CN(C)C
 : 1.6 | i
C[C@@H]1CN([C@H](C)CO)C(=O)Cc2cc(NC(=O)NC3CCCCC3)ccc2O[C@@H]1CN(C)S(=O)(=O)c1ccc(Cl)cc1
 : -2.7 | i
O=C(C[C@H]1C[C@@H]2c3cc(NC(=O)Nc4ccccc4F)ccc3O[C@@H]2[C@@H](CO)O1)NC1CCCC1
 : -3.3 | i
COCC(=O)Nc1ccc2c(c1)[C@H]1C[C@@H](CC(=O)N3CCc4ccccc4C3)O[C@H](CO)[C@H]1O2
 : -1.0 | i
C[C@H]1CN([C@@H](C)CO)C(=O)c2cc(C3=CCCC3)cnc2O[C@@H]1CN(C)C(=O)Nc1ccccc1
 : -1.4 | i
C[C@H]1CN([C@@H](C)CO)C(=O)CCCn2nncc2CO[C@@H]1CN(C)S(=O)(=O)c1ccc2c(c1)OCCCO2
 : 2.4 | i
CNC(=O)C[C@H]1CC[C@@H]2[C@H](COc3ccc(NC(=O)c4ccccc4OC)cc3C(=O)N2C)O1
 : 0.8 | +
